High-throughput results as filed in PubChem BioAssay.
hNpr1 antagonist: blocks ANP-stimulated signaling of human Npr1 receptor | P16066 | HEK293 hNpr1 GloSensor cGMP, ANP-stimulated luminescence | Potency, µM (series often up to 46.3 µM), for the others: at the highest dose activity change, negative = inhibition, hits mostly inhibitors | 1.6% of 76,000 active; active = well fitted inhibition curve with a large enough effect; inconclusive = small, poorly fitted or top-dose-only effect; inactive = no such curve, though single readings can be large or run the other way;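 also: nearly all actives have a fitted effect of over 60% in size; nearly all hits also lower the signal before the agonist is added; a reference antagonist and vehicle were the controls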
Target sequence (P16066 whole entry, looked up): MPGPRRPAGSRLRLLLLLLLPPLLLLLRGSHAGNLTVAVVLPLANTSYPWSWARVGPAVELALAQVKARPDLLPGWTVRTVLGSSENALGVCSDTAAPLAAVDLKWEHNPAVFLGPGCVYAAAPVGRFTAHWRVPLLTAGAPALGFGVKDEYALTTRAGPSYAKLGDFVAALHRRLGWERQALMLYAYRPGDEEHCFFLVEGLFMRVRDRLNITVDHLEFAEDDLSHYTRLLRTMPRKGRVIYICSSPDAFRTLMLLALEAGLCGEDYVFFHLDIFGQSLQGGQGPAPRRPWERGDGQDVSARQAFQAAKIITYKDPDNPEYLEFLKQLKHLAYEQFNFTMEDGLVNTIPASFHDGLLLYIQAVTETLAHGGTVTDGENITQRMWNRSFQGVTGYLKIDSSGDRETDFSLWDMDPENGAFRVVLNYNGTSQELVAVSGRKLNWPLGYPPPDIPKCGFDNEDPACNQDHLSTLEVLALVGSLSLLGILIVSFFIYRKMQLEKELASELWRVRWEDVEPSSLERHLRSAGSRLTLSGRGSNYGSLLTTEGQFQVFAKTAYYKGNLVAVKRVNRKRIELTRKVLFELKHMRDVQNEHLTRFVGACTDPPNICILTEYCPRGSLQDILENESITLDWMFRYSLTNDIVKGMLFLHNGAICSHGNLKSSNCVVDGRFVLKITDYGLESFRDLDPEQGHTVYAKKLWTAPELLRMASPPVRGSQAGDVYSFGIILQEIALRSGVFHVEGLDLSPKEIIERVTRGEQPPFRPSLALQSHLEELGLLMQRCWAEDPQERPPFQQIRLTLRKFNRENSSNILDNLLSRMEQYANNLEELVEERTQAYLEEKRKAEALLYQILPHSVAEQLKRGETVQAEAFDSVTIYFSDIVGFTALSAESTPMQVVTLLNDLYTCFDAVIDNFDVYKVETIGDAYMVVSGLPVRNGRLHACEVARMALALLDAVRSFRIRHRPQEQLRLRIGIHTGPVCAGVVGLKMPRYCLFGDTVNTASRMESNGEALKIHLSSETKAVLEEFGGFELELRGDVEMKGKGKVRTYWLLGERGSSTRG
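HEK293 cells stably expressing human Npr1 and cGMP GloSensor pGS-40F, loaded 2 h with 2% GloSensor reagent, given compound 30 min at room temperature. Luminescence read before and 20 min after 0.1 nM hNppA.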
The depositor's hits bear a star; ? = inconclusive; [ ] = dose if it differs, or a comment. % is scaled to controls: 0 for no effect and ±100 for the full control effect; potency is read from the fitted curve at half-maximal effect. Some of the compounds tested; the hit share may differ from the screen's.

| hNpr1 antagonist | Structure |
| --- | --- |
| 5.6%[70.6 µM] | O[C@@H]1CC(CNC2CCC2)(COc2cccnc2)C[C@@H]1O (stereo partly specified) |
| -1.6%[70.6 µM] | CN1CCCC1COc1ccc2c(n1)CN(Cc1ccc(C(F)(F)F)cc1)C(=O)CO2 (stereo unspecified) |
| 0.0% | Cc1noc(C)c1[S+](=O)([O-])N1CCC2(C1)N=C(c1ccncc1)C(=O)N2 (stereo unspecified) |
| 1.6% | CN(Cc1ccc2nonc2c1)Cc1cc2n(n1)CCN(S(C)(=O)=O)C2 |
| 2.5% | COc1ccc(C(=O)Nc2ccnn2C2CCN(C(C)=O)CC2)cc1 |
| -3.6% | COc1ccc2c(c1)c(CN1CC[C@H](CO)[C@H](N(C)C)C1)cn2C(C)C |
| 0.1% | Cc1cccc(CC(=O)N2CC(F)(F)C[C@H]2c2nnc(C3CC3)o2)c1 |
| -29.2% | Cc1ccc(C(=O)Nc2ccc3c(N4CCCCC4)ncnc3c2)cc1F |
| 7.2% | CN1C(=O)C(c2ccccc2)CC12CCN(C(=O)C1CCC(O)CC1)CC2 (stereo unspecified) |
| -6.0% | COc1ccccc1NC(=O)N1CCC(Oc2ncccc2C(=O)N2CCOCC2)C1 (stereo unspecified) |

Carrying on:
| hNpr1 antagonist | Structure |
| --- | --- |
| 3.8% | CCn1cc(CN2CCC3(CCC3OC)CC2)cn1 (stereo unspecified) |
| 6.3% | N#Cc1ccccc1CN1CCCC(c2nc(-c3cccnc3)no2)CCNC(=O)CC1 (stereo unspecified) |
| 6.1% | CCOc1ccc(NC(=O)C2CC(=O)N(c3n[nH]c4cccc(F)c34)C2)cc1 (stereo unspecified) |
| 5.3%[70.6 µM] | COC(=O)N1CCn2c(nnc2-c2ccccc2)C1 |
| 6.8% | O=C(CCc1ccccc1)N1CCCC(c2nn[nH]n2)C1 (stereo unspecified) |
| 1.0%[70.6 µM] | COc1ccc([C@H]2C[C@@H](O)[C@@H](O)[C@@H]2NC(=O)c2c(C)noc2C)cc1 |
| -3.0% | O=C(Cn1nc2c(cc1=O)CCCC2)N1CCCC1 |
| 1.5% | C[C@]1(CO)[C@H]2Cc3sc(NC(=O)c4ccc(F)cc4)nc3[C@@H](CC(=O)O)[C@]2(C)CC[C@H]1O |
| -9.5% | CC(=O)Nc1ccc(C(=O)NC2CCN(c3cc(-c4ccc(F)cc4)[nH]n3)C2)cc1 (stereo unspecified) |
| 12.1% | COc1ccc(Cn2c(CN(C)S(C)(=O)=O)n[nH]c2=O)cc1 |

(listing goes on)
| hNpr1 antagonist | Structure |
| --- | --- |
| 3.0%[70.6 µM] | C=CCNC(=O)N[C@H]1CCN2C(=O)c3cc(-c4ccccc4F)ccc3NC(=O)[C@@H]2C1 |
| -1.4%[70.6 µM] | O=C1c2cnc(-c3ccccc3C(F)(F)F)nc2OCCN1Cc1ccccc1 |
| 1.2% | COc1ccc(NC(=O)N2CCCC2c2nc(C3CCOCC3)no2)cc1 (stereo unspecified) |
| 0.3% | CNC(=O)[C@@H]1C[C@H](Oc2ccccc2)CN1C(=O)c1ccc2ncccc2c1 |
| -14.8% | Cc1nc(N2CCN(C(=O)Cc3cccs3)CC2)cc(C(F)(F)F)n1 |
| 2.3% | CCCCS(=O)(=O)NC1CCc2nn(CC3CC3)c(=O)n2CC1 (stereo unspecified) |
| -1.9% | CCCc1noc(-c2cccn3c(CNC(=O)C4CC4)nnc23)n1 |
| -26.6% | Cc1c(C(C)NC(=O)c2ccc(=O)[nH]c2)cnn1-c1cccc2ccccc12 (stereo unspecified) |
| -1.8% | O=C(CCn1cnc2ccccc2c1=O)N1CCCC(Nc2ccccc2)C1 (stereo unspecified) |
| -4.5% | Cc1cn2nc(C(=O)NCc3ccc(F)cc3F)cc2c(N2CCCC2)n1 |

New compounds follow.
| hNpr1 antagonist | Structure |
| --- | --- |
| -2.3%[70.6 µM] | C=CCn1cc2c3c(cccc31)[C@H](CC(C)C)N[C@H](C(=O)NCCOC)C2 |
| ? | Cn1cc(CNc2ccc(-c3nc(-c4cccc(C(F)(F)F)c4)no3)cn2)cn1 |
| -0.8% | C[C@]1(CO)[C@H]2Cc3sc(NC(=O)c4ccc(F)cc4)nc3[C@@H](CC(=O)NC3CCCCC3)[C@]2(C)CC[C@H]1O |
| -20.3% | O=C1c2c(nc(COc3ccc(Cl)cc3)n2Cc2ccccc2)NCCN1CC1CCOCC1 |
| -13.2% | Cc1cccc(C(=O)N[C@@H]2CN(C3CCOCC3)C[C@H]2CN(C)C)c1 |
| 0.0%[70.6 µM] | O=C1CC2CCCC(C1)N2[S+](=O)([O-])c1ccccc1 |
| 10µM* | COc1ccc(NC(=O)N2CCc3c(C(=O)NCCN4CCCCCC4)cccc32)cc1 |
| -8.4% | CCO[C@@H]1COCC[C@H]1NC(=O)CN1C(=O)COc2ccc(C)cc21 |
| -1.7% | CCN1CC(c2ccccc2)CC2(CCN(C(=O)c3ccon3)CC2)C1 (stereo unspecified) |
| -7.6% | COc1ccc(CNC(=O)c2cc3c(s2)CN(C2CC2)C3)cc1OC |

Next part
| hNpr1 antagonist | Structure |
| --- | --- |
| 3.2% | Cc1[nH]cnc1-c1nccn1CC(CO)Cc1cccs1 (stereo unspecified) |
| -1.6%[70.6 µM] | CN1CCN(C(=O)[C@@H]2CCC[C@@H](NCc3cccc(Cl)c3)CN(C)C(=O)C2)CC1 |
| -2.2%[70.6 µM] | CN1C[C@H](NCC2CC2)CCC[C@@H](C(=O)NCc2cc(F)cc(F)c2)CC1=O |
| 0.8% | CCCn1cc(NC(=O)C[C@H]2NC(=O)c3ccccc3NC2=O)c(C)n1 |
| 0.4% | CC(C)(C)c1ccc(NC(=O)O[C@@H]2CO[C@H]3[C@@H]2OC[C@@H]3Nc2nccc(-c3ccc(-c4ccccc4)cc3)n2)cc1 |
| 25.3% | CN(C)Cc1ccc(C(=O)N[C@@H]2COCC[C@@H]2OCC(=O)O)o1 |
| -5.9% | O=C(O)c1cccc2c1CCN2S(=O)(=O)c1ccccc1F |
| 5.7% | CN1CCCCCCN(C(=O)C2CC2)[C@H]2CCC[C@H]2C1=O |
| -8.5% | Cc1ccc(-c2ncc(C(=O)Nc3ccccc3)c(-c3ccncc3)n2)cc1 |
| -17.6% | Cc1noc(C)c1S(=O)(=O)N1CCC(N(CCC(C)C)C2CCOCC2)CC1 |

(list continues)
| hNpr1 antagonist | Structure |
| --- | --- |
| 3.3% | CCCNC(=O)N(C1CCOCC1)C1CCN(C(=O)c2ccc(C)s2)CC1 |
| 0.0% | CCOCc1nc(C2CCCN(C(=O)c3ccc(OC)cc3)C2)no1 (stereo unspecified) |
| -12.1% | CN(C)C[C@@H]1CN(Cc2cccnc2)C[C@H]1NC(=O)Cc1cccc(F)c1 |
| 4.3% | CCCCN1C(=O)c2ccccc2C(C(=O)NCc2cccnc2)C12CCCCC2 (stereo unspecified) |
| -1.7% | COc1cc(NC(=O)Cn2c(C)cc3nc4n(c(=O)c32)CCCCC4)cc(OC)c1 |
| -2.8% | CN1C[C@@H]2CCCN3CCC[C@@H]([C@H]23)[C@H]1CCCC(=O)NCCC1=CCCCC1 |
| 4.7%[70.6 µM] | CC1(C(=O)NCc2cccnc2)CCCc2cnc(Nc3ccccc3)nc21 (stereo unspecified) |
| 0.7% | CCN(C)C(=O)C(C)N1CCc2onc(C(c3ccccc3)c3ccccc3)c2C1 (stereo unspecified) |
| ? | O=C(Cc1cccc(Cl)c1)N1CCC(c2nn(-c3ccccc3)c(=O)[nH]2)CC1 |
| 2.3% | Cc1cc(-c2nc(C3CCOC3)no2)c2ccccc2n1 (stereo unspecified) |

Next section.
| hNpr1 antagonist | Structure |
| --- | --- |
| -16.3% | COc1ccc(C(=O)NC2CC2)c(OC2CCN(Cc3cccc(SC)c3)CC2)c1 |
| 0.0% | COCCC(=O)N1CCC2(CCN(CC(=O)O)CC2)C(CO)C1 (stereo unspecified) |
| -14.3% | COc1ccc(C2Cn3nnc(-c4nc(C)no4)c3CO2)cc1 (stereo unspecified) |
| 6.0% | CNC(=O)N1CCCC1c1nc(C2CN(C(=O)c3nccn3C)C2)no1 (stereo unspecified) |
| -5.8% | Cc1cc(C)cc(-c2nc(C3CC(=O)N(c4ccc(Cl)cc4)C3)no2)c1 (stereo unspecified) |
| -0.3% | Cc1ncsc1CN1CCCCCCN(C)C(=O)[C@@H]2CCC[C@@H]21 |
| -10.1% | Cc1ccc(CN2CC(Oc3ccccc3C(=O)NCc3ccccc3)C2)o1 |
| 9.9% | Cc1ccc(C2Cn3nnc(-c4noc(COc5ccccc5)n4)c3CO2)cc1 (stereo unspecified) |
| -0.6% | Cc1ccc(NC(=O)CN2C(=O)NC(c3ccccc3Cl)C3=C2COC3=O)cc1 (stereo unspecified) |
| 11.2µM* | COCc1cc(NCCSCc2ccccc2C)ncn1 |

Later entries.
| hNpr1 antagonist | Structure |
| --- | --- |
| 3.0% | CS(=O)(=O)Cc1ccc(-c2ccc(F)cc2C(F)(F)F)nc1 |
| -4.1% | CCOCCCNC(=O)CN1CC2CC(C1)[C@H]1CCCC(=O)N1C2 (stereo partly specified) |
| 0.1% | COCCNC(=O)[C@@H]1C[C@H](Oc2ccccc2)CN1C(=O)c1sc(C)nc1C |
| -1.0% | O=C(c1ccc(N2CCCC2=O)cc1)N1CCC2(CC1)OCCCC2O (stereo unspecified) |
| -9.4% | CC1CCC2(CC1)OCC(C(=O)NCc1ccc3c(c1)OCO3)N2C(=O)c1ccccc1F (stereo unspecified) |
| 12.1% | CCc1noc(-c2ccn3c(CNC(=O)c4cc(F)cc(F)c4)nnc3c2)n1 |
| 0.7% | CC(=O)Nc1ccc(NC(=O)c2cc3c(n2C)CCN(Cc2ccccc2)C3)cc1 |
| -1.8% | O=C(CCC[C@@H]1[C@H]2CCCN3CCC[C@@H](CN1C(=O)Cc1ccc(F)cc1)[C@@H]23)N1CCOCC1 |
| -3.0% | Cc1cnc(-c2ccncc2)n1CCN |
| 3.9% | COCC(=O)N[C@@H]1CN(Cc2cn(C)nc2C)C[C@H]1CO |

Some of the entries so far, field by field:
> COCCNC(=O)[C@@H]1C[C@H](Oc2ccccc2)CN1C(=O)c1sc(C)nc1C
  hNpr1 antagonist: 0.1%
> CCc1noc(-c2ccn3c(CNC(=O)c4cc(F)cc(F)c4)nnc3c2)n1
  hNpr1 antagonist: 12.1%
> O=C(c1ccc(N2CCCC2=O)cc1)N1CCC2(CC1)OCCCC2O (stereo unspecified)
  hNpr1 antagonist: -1.0%
> CS(=O)(=O)Cc1ccc(-c2ccc(F)cc2C(F)(F)F)nc1
  hNpr1 antagonist: 3.0%

(list continues)
| hNpr1 antagonist | Structure |
| --- | --- |
| -17.6% | Cn1nc(C(=O)NC2CCCN(c3cc(-c4ccc(F)cc4)[nH]n3)C2)c2ccccc21 (stereo unspecified) |
| -4.2% | CCOC(=O)N1CCN(c2nccc(-c3ccccn3)n2)CC1 |
| 8.2% | Cc1ccccc1-c1nn(-c2ccc(F)cc2F)cc1CN1CCC(O)CC1 |
| 4.3% | CCN1c2cc(C(=O)Nc3ccc(C(F)(F)F)cc3)ccc2C(=O)N2CCCC21 (stereo unspecified) |
| 6.5% | CCN1CCN(C(=O)CC2CCCN(c3cnn(CCOC)c(=O)c3)C2)CC1 (stereo unspecified) |
| -7.2% | CC(C)CN1C(=O)c2cccn2CC1CNC(=O)c1cccn1C (stereo unspecified) |
| 2.9% | CC(C)c1noc(-c2cccn3c(CNC(=O)c4nccc5ccccc45)nnc23)n1 |
| -5.8%[70.6 µM] | Cc1ccsc1-c1[nH]nc2ncc(-c3cccc(CO)c3)nc12 |
| -8.9% | O=C([C@@H]1C[C@H](c2ccc(F)cc2)N([S+](=O)([O-])C2CC2)C1)N1CCN(c2ccccn2)CC1 |
| 1.1% | CS(=O)(=O)N1C[C@H]2CCN(C(=O)c3cccc4[nH]ccc34)C[C@H]21 |

(further entries)
| hNpr1 antagonist | Structure |
| --- | --- |
| 5.1% | CC(=O)c1ccc(C(=O)N[C@H]2COC[C@H]2Cc2cc(C)no2)s1 |
| 1.2% | CCc1nnc(CN2CCC(C(=O)Nc3cccc(-c4ccco4)c3)CC2)o1 |
| 0.1% | COCC(=O)N1C[C@@H](COc2cccnc2)[C@H](c2ccncc2)C1 |
| -13.4% | COC1CCC12CCN(C(=O)c1cnccn1)CC2 (stereo unspecified) |
| 5.3%[70.6 µM] | CN1C[C@@H](NC(=O)C2CCCCC2)C[C@H]1c1nc(-c2ccc(F)cc2)no1 |
| 1.6% | Cc1ccoc1C(=O)NC1CC(=O)N(Cc2cccc3ccccc23)C1 (stereo unspecified) |
| -18.9% | O=C(Cc1ccsc1)N1CCC2(CC1)N=C(c1cccc(Br)c1)NO2 |
| 5.4% | Cc1ccccc1NC(=O)N1CCCC(Cn2c(C3CC3)nc3cccnc32)C1 (stereo unspecified) |
| 0.8% | CCc1ccccc1NC(=O)N(C)CC1CCOCC1 |
| ? | CC1(C)[C@H](Cc2cc(COc3ccccc3)on2)C[C@@H]1NC(=O)C1CCCC1 |

(next part)
| hNpr1 antagonist | Structure |
| --- | --- |
| 1.4%[70.6 µM] | COCC(=O)NC[C@H]1OC[C@@H](NC2CCN(C(C)=O)CC2)[C@@H]1O |
| -3.0% | Cc1ccccc1C(=O)N1CCC(c2n[nH]c(=O)n2Cc2ccc(F)cc2)CC1 |
| 5.7% | COc1cccc(CCC(=O)NC(C)C(=O)N2CCN(c3ccccn3)CC2)c1 (stereo unspecified) |
| 7.0% | O=C(CC1CCCC1)NCC1CCCCC(=O)N1 (stereo unspecified) |
| -12.5% | Cc1cc(=O)n(CC(=O)Nc2ccccc2C)c(N(C)Cc2ccccc2)n1 |
| 6.1%[70.6 µM] | CC(C)NC(=O)C(C)[C@@H]1CC[C@@]2(C)CC[C@H](NC(=O)C3CC3)[C@@H](C)[C@@H]2[C@H]1O (stereo partly specified) |
| -2.3% | Cc1nc(-c2c3n(c(=O)n(CC(=O)NCc4ccccc4)c2=O)CCCCC3)no1 |
| -18.5% | CCOC(=O)C1CCCN(C(=O)Cc2ccc(N(Cc3ccccc3)C(=O)c3ccco3)cc2)C1 (stereo unspecified) |
